ClpP mod: qHTS Assay for Activators of ClpP. ATP-dependent Clp protease proteolytic subunit (Bacillus subtilis (strain 168)), P80244. purified B. subtilis ClpP, FRET peptide cleavage, 20 min. Potency, µM (doses to about 57.5 µM), for inactives: top-dose activity change, negative = active. actives 1.9% (n = 340,000); active = well fitted falling curve with a large enough effect; inconclusive = small, poorly fitted or top-dose-only effect; inactive = no such curve, though single readings can be large or run the other way; also: potency is read from the fitted curve at half-maximal effect; the source files actives as falling curves though it sought activators and does not explain the sign; nearly all actives have a fitted effect of over 65% in size; many hits overshoot -100%
Target sequence (P80244 whole entry, looked up): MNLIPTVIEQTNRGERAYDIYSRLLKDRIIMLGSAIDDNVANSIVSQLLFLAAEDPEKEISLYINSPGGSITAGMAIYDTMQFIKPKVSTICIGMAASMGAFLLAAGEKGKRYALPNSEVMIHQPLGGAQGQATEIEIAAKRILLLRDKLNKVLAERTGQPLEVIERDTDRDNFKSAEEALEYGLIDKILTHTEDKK
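Buffer: 100 mM Tris/HCl pH8, 100 mM KCl, 0.05% low protease BSA, 2.5% glycerol, 0.01% Tween-20. ClpP 10 microg/mL final; 20 min RT; delta FRET normalized to ADEP and DMSO controls.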
PINK1 modulator: A Quantitative High throughput Screen to Identify Chemical Modulators of PINK1 Expression | PINK1 immunofluorescence, high-content cytometry, 24 h | Potency, µM (top dose mostly 76.6 µM), without a hit: top-dose activation (PINK1 increase), hits mostly activators | actives 0.2% (n = 410,000) | AID 624263, 2012; active = well fitted activation curve with a large enough effect; inconclusive = small, poorly fitted or top-dose-only effect; inactive = flat fitted curve, though single readings scatter; cell line not stated here;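 also: potency is read from the fitted curve at half-maximal effect; % of control where 0% means no effect; nearly all actives have a fitted effect of over 65% in size; a mitochondrial uncoupler was the plate control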
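Readout is PINK1 immunofluorescence, quantified alongside mitochondrial, cell and nuclear markers by laser-scanning microplate cytometry. Cells from a stable line were exposed to compound titrations (5 concentrations) for 24 hours, with CCCP controls.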
TRPML1 inh: qHTS for Inhibitors of the Human Mucolipin Transient Receptor Potential 1 (TRPML1) | activity change, negative = inhibition, % (test concentration not listed) | actives 0.02% (n = 390,000) | TRPML1-inducible cells, Ca2+ dye fluorescence, FDSS; active compounds read low; inhibition of EC80 agonist-evoked calcium signal; in the data active means activity change below about -50%; inconclusive means about -30% to -50%; inactive means above about -30%;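 also: stimulus is agonist 54-4 at its EC80 concentration; % is scaled to controls: 0 for no effect and ±100 for the full control effect; compound concentration not given in the record; the text of the record puts the active cut at -80%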
Target sequence (Q9GZU1 whole entry, looked up): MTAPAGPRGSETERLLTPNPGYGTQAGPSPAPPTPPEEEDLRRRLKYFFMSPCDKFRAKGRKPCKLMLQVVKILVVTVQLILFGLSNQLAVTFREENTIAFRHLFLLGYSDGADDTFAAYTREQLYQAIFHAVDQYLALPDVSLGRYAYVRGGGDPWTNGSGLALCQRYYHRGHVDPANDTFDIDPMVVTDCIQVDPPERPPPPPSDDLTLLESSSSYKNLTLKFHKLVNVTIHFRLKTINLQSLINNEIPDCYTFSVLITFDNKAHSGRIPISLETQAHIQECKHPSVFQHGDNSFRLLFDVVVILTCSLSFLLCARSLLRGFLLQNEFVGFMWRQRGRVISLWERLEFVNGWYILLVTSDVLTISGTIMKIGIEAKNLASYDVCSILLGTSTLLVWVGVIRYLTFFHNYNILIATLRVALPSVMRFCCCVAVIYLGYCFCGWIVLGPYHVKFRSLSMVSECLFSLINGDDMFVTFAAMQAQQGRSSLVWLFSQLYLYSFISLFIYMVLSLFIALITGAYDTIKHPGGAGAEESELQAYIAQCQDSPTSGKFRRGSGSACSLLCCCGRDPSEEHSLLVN
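Tet-induced TRPML1-DL cells loaded with Ca8 no-wash calcium dye were read kinetically on FDSS. Compound addition was followed by EC80 agonist 54-4 (4 uM final); inhibition was read over 110 s.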
TRPV1 potentiator: HTS Assay for Compounds that Act as Potentiators of the Vanilloid Receptor 1; Transient receptor potential cation channel subfamily V member 1 (Homo sapiens), Q8NER1; TRPV1-expressing cells, Fluo-8 calcium influx, capsaicin EC20 potentiation; host cell line not named in the record; control for the full effect not named in the record; potentiation, % at 8.33 µM; actives 0.02% (n = 320,000); AID 540277, 2011; active means potentiation above 80%; inconclusive means 30% to 80%; inactive means below 30%; also: 0% is about no effect
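Cells expressing TRPV1 were dye-loaded with Fluo-8 and read kinetically: 10 s baseline, 3 min after compound (agonist portion), then 2 min after EC20 capsaicin (allosteric enhancer portion). Calcium-bound dye fluorescence at 480/520 nm.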
TRPML1 agonist: qHTS for Agonists of the Human Mucolipin Transient Receptor Potential 1 (TRPML1); TRPML1-expressing cells, Ca2+ dye fluorescence, FDSS; host cell line not named in the record; reference of the full effect not given here; activation, % (no concentration beside the values); actives 0.12% (n = 410,000); in the data active = activation above about 50%; inconclusive = about 30% to 50%; inactive = below about 30%; also: 0% is about no effect; the text of the record puts the active cut at 80%
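Kinetic FDSS Ca2+ read in Tet-induced TRPML1-DL cells (ABD Ca8 dye plus quencher, 45-90 min RT loading): baseline, then compound, then 110 s agonist window; EC80 agonist 54-4 at 4uM final added afterwards for a 110 s antagonist window.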
Menin MLL FP FL: qHTS Assay for Inhibitors Targeting the Menin-MLL Interaction in MLL Related Leukemias: Competition With Fluorescein Labeled MLL-derived Peptide. 290,000 tested, under 10 active. Fluorescence polarization, fluorescein-MLL peptide displacement from menin. AID 1766, 2009. FP activity change, % at 61.4 µM; inconclusive = falling polarisation curve, or a change in total fluorescence; inactive = total fluorescence flat and polarisation flat or rising; no compound was filed as active; the % refers to the polarisation; negative = inhibition;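 also: % of control where 0% means no effect; inhibitors lower the polarisation; unlabelled MLL peptide was the positive control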
Sfp PPTase inh: qHTS Assay for Inhibitors of Bacillus subtilis Sfp phosphopantetheinyl transferase (PPTase). 4'-phosphopantetheinyl transferase ffp (Bacillus subtilis), Q9F4F7. Biochemical Sfp PPTase activity, qHTS. AID 1490, 2009. actives 3.5% (n = 310,000). Potency, µM, without a hit: max response, negative = inhibition, most hits filed as inhibitors; active = well fitted inhibition curve with a large enough effect; inconclusive = small, poorly fitted or top-dose-only effect, or another doubt; inactive = no such curve, though single readings can be large or run the other way;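 also: the enzyme is Sfp with the accession as filed and its product quenches rhodamine fluorescence; potency is read from the fitted curve at half-maximal effect; 0% = enzyme reaction without inhibitor and -100% = no enzyme wells; top concentration of the series not given in the record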
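Fluorescence-quenching assay: 15 nM Sfp-PPTase preincubated 15 min at room temperature with compound, then 5 uM rhodamine-CoA and 12.5 uM BHQ-2-labelled YbbR peptide added. Fluorescence (ex 525/em 598 nm) read at start and after 30 min; difference gives rate.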
* hit, by the source's call; ? = inconclusive; · = not tested or not shown; [ ] = dose if it differs, or a comment.

SMILES | ClpP mod | PINK1 modulator | TRPML1 inh | TRPV1 potentiator | TRPML1 agonist | Menin MLL FP FL | Sfp PPTase inh
COc1ccc(C/C(=N\O)c2ccc(OC)cc2)cc1 | -1.6% | -0.3% | 44 | 4 | 1.0 | 1.8 | 9%
COC(=O)c1cc2sccc2n1Cc1ccccc1 | -8.4% | 2.3% | -11 | · | 1.2 | · | ·
O=C(Nc1ccc(Cl)cc1N1CCOCC1)C1CCCCC1 | 0.3% | 4.0% | -12 | 8 | 0.6 | -3.7 | -3%
Cc1ccc(-n2c(Cc3cccs3)nnc2SCC(=O)Nc2ccc(F)c(F)c2)cc1 | 0.4% | -3.1%[38.3 µM] | 6 | 17 | 1.4 | 0.8 | 4%
NC(=NCCc1c[nH]c2ccccc12)NC(=O)c1ccc(F)cc1 | · | 5.2% | 19 | 8 | 2.0 | 6.4 | 1%
N#C/C(=C\c1ccc(-c2ccc(Cl)c(C(=O)O)c2)o1)c1nc2ccccc2[nH]1 | -2.5% | 0.1% | -21 | 12 | 3.5 | · | ·
Cc1ccc(C(=O)N(C)CC(=O)Nc2ccc(F)c(F)c2F)o1 | -1.7% | 0.3% | -14 | 22 | -0.1 | -0.4 | 11%
O=S(=O)(NCC1CCCO1)c1ccc2c(c1)OCCO2 (stereo not drawn) | -2.1% | -0.1% | -3 | -9 | 1.0 | 1.4 | 20%
O=C(Nc1ncnc2sc3c(c12)CCC3)c1ccco1 | -6.7% | · | 0 | ? | -0.4 | -1.9 | 10%
Cc1nnc(N2CCN(c3cccc(C(F)(F)F)c3)CC2)c2c1nnn2Cc1ccccc1 | 3.7% | -0.3% | 22 | · | 0.0 | · | ·
CCN(CC)C(=O)c1ccc(COc2ccccc2Br)o1 | -1.1% | -1.1% | -3 | -2 | 1.8 | 0.4 | -6%
CCC(=O)Nc1ccc(-c2nn3c(C)nnc3s2)cc1C | -5.0% | -2.1%[38.3 µM] | 1 | 1 | 0.0 | 3.0 | 0%

Reprinted from the listing, 3 compounds:
SMILES | ClpP mod | PINK1 modulator | TRPML1 inh | TRPV1 potentiator | TRPML1 agonist | Menin MLL FP FL | Sfp PPTase inh
Cc1nnc(N2CCN(c3cccc(C(F)(F)F)c3)CC2)c2c1nnn2Cc1ccccc1 | 3.7% | -0.3% | 22 | · | 0.0 | · | ·
CCN(CC)C(=O)c1ccc(COc2ccccc2Br)o1 | -1.1% | -1.1% | -3 | -2 | 1.8 | 0.4 | -6%
CCC(=O)Nc1ccc(-c2nn3c(C)nnc3s2)cc1C | -5.0% | -2.1%[38.3 µM] | 1 | 1 | 0.0 | 3.0 | 0%

Next section.
SMILES | ClpP mod | PINK1 modulator | TRPML1 inh | TRPV1 potentiator | TRPML1 agonist | Menin MLL FP FL | Sfp PPTase inh
CC1CCCCN1S(=O)(=O)c1ccc2c(c1)CCN2C(=O)CCC(=O)O (stereo not drawn) | -1.4% | -4.0%[38.3 µM] | 5 | -2 | 0.7 | 1.9 | 12%
Brc1cccc(-c2nnc3n2CCCCC3)c1 | -0.2% | -0.1% | -12 | -8 | -1.2 | 2.4 | 18%
CCCNC(=O)C1CCC(Cn2c(=O)c3sccc3n(Cc3cccc(OC)c3)c2=O)CC1 (stereo not drawn) | -0.7% | 0.8% | -1 | · | 0.2 | · | ·
CON(C)C(=O)CCN(C(=O)OC(C)(C)C)c1ccccc1 | 0.8% | 1.5% | -16 | · | 0.1 | · | ·
COC(=O)c1cc(=O)n(CCc2ccc(OC)c(OC)c2)c(=Nc2ccc(F)c(Cl)c2)s1 | -0.1% | -0.1% | 5 | 8 | -0.9 | 0.2 | ?
O=C(COc1ccc([N+](=O)[O-])cc1)N/N=C/c1cc([N+](=O)[O-])ccc1N1CCOCC1 | 1.0% | 0.1% | 1 | 13 | -0.1 | 2.7 | 5%
O=C(Nc1ccc2c(c1)OCO2)C1CC(c2ccc(F)cc2)=NO1 (stereo not drawn) | 5.5% | -1.8% | 24 | -22 | -0.6 | 0.5 | -8%
CCCCN(C)C(=O)c1sc(=O)n(Cc2cc(Cl)ccc2OC)c1C | 0.9% | -0.9% | · | · | -1.1 | · | ·
CCOC(=O)C1(C)CCN1C(=O)COc1ccccc1 (stereo not drawn) | -19% | 1.4% | · | · | -0.3 | · | ·
COc1ccc(-n2nc(C)cc2N)cc1 | -1.5% | 0.4% | -19 | -8 | 1.8 | 0.7 | 13%
Cn1nccc1C(=O)N/N=C/c1cccnc1 | -1.3% | 3.2% | 54 | -8 | -0.1 | 0.0 | 3%
CCCc1nc(N)nc2c1C(=O)CC(C)(C)C2 | 0.8% | 1.0% | 9 | 6 | -0.3 | 1.7 | 12%
Cn1c(CN2CCCC2)nc2cc(NS(=O)(=O)c3ccc(Cl)cc3)ccc21 | -2.5% | 2.1% | -4 | -1 | 5.7 | 0.2 | 9%
CCOC(=O)c1c(C)[nH]c(C(=O)CSc2nnc(CC(C)c3ccccc3)o2)c1C (stereo not drawn) | 1.5% | 1.8% | -7 | 30 | 1.2 | 0.3 | 11%
COc1ccc(Br)cc1/C=N/NC(=O)c1cc(Br)ccc1O | · | · | · | 1 | · | -5.4 | 5%
O=C(NC1CCCCC1)C1c2ccccc2OCC(=O)N1CCCN1CCOCC1 (stereo not drawn) | -15% | 0.2% | · | · | 0.1 | · | ·
CCOc1cccc(CNn2cnnc2)c1OCc1ccccc1 | -2.3% | 0.5% | 1 | -8 | 0.4 | 1.4 | 7%
Cc1ccc(NC(=O)CSc2nc3ncccc3[nH]2)cc1F | -0.1% | 1.4% | -1 | · | 1.4 | · | ·
Cc1cccc(CSc2ccc(-c3ccco3)nn2)c1 | -5.8% | 0.6% | -5 | 2 | 3.8 | 5.9 | ?
CCn1c(/C=C/c2cc[n+](C)cc2)nc2ccccc21 | · | -1.9% | -4 | 1 | 1.4 | ? | -1%
CCC(=O)N1CCN(c2ccc(NC(=O)c3ccco3)cc2Cl)CC1 | 1.0% | -0.3% | -6 | -5 | 0.5 | 2.2 | 3%
O=C(c1cccc(C(F)(F)F)c1)N1CCC(=O)N(C(CO)Cc2ccccc2)CC1 (stereo not drawn) | 0.7% | -0.4% | 27 | · | 0.9 | · | ·
O=C(CSc1nnc(CNC(=O)c2c(F)cccc2F)o1)c1ccccc1 | -1.8% | 1.6% | 4 | 3 | 0.5 | -0.1 | -13%
COc1ccc(-c2nc3c(s2)CCc2onc(-c4ccc(OC)cc4)c2-3)cc1 | 4.5% | 3.9% | 0 | 9 | 0.1 | -4.2 | 5%
CC(=O)Nc1cn(C(C)=O)c(C)n1 | · | · | · | 6 | · | -0.1 | -1%
O=C(NCc1ccccc1)C(c1ccccc1)N(Cc1cccs1)C(=O)c1cnccn1 (stereo not drawn) | -5.5% | -1.3%[38.3 µM] | 6 | -10 | 0.1 | 5.5 | -4%
Oc1ccc(N=Nc2ccccc2C(F)(F)F)c2cccnc12 | 3.3% | 9.5% | 2 | -4 | -0.2 | -1.0 | 22%
Cc1ccc(/C(O)=C2\C(=O)C(=O)N(CC(C)O)C2c2ccc(N(C)C)cc2)cc1 (stereo not drawn) | -22% | 1.9% | -19 | 5 | -0.4 | -1.1 | -7%
COc1cccc(NC(=O)N(Cc2cn(C)c3ccccc23)C2CCCCC2)c1 | ? | -2.0% | 28 | · | 0.9 | · | ·
COc1ccc2c(c1)cc(C(=O)O)n2C | ? | ? | -3 | -4 | -0.3 | 4.9 | 9%
O=C(CN1CCN(c2ccc(F)cc2)CC1)OCc1ccccc1 | -5.8% | 15%[38.3 µM] | 23 | -9 | 0.0 | 0.7 | 1%
Cc1ccc(OCCCN2CCOCC2)cc1 | · | -0.4% | 8 | 1 | 0.8 | -1.7 | -10%
Cc1cccc(NC(=O)C2CCCN2C(=O)OCC(C)C)c1C (stereo not drawn) | -2.4% | 0.9% | 13 | 4 | -0.7 | -2.1 | 15%
Cc1cc(C)cc(C(=O)Nc2ccc(N3CCN(S(C)(=O)=O)CC3)cc2)c1 | · | -0.7% | 13 | -4 | 0.4 | 0.2 | 15%
CC(=O)Nc1ccc(S(=O)(=O)N(C)CC(=O)OCC(=O)N2CCCCCC2)cc1 | -0.6% | 1.6% | -2 | 4 | -0.5 | 9.3 | 9%
COc1ccc(NC(=O)c2onc(C)c2Cl)cc1OC | -0.3% | 0.2% | -7 | 5 | -0.4 | -1.6 | -8%
O=C(NCCSc1ccc(Br)cc1)c1ccc2nc[nH]c2c1 | 0.2% | 1.8% | 10 | -6 | -0.7 | · | 16%
CCC(C(=O)N1CCOCC1)n1nc(C)c2c(C)n(-c3ccccc3)nc2c1=O (stereo not drawn) | -0.5% | -0.4% | -8 | -4 | 0.0 | · | 17%
Cc1cc(-c2nnc(CCC(=O)NCC(C)c3ccccc3)o2)no1 (stereo not drawn) | -11% | 0.5% | -3 | 19 | -0.6 | · | 17%
O=C(COc1ccccc1C(=O)Nc1ccccc1)Nc1cccc(Cl)c1 | -2.7% | 6.0% | · | · | -0.1 | · | ·
O=C(c1cccc(OC2CCN(Cc3cccc(OCCO)c3)CC2)c1)N1CCCC1 | 0.7% | -1.1% | -7 | -1 | 2.0 | · | 1%
CC(=O)N1N=C(c2cccs2)CC1c1ccc(Br)cc1 (stereo not drawn) | -8.1% | 0.1% | -10 | 7 | 0.8 | -1.7 | -13%
CCN(CC)S(=O)(=O)c1ccc(Cl)c(C(=O)Nc2nnc(C)s2)c1 | 0.8% | 6.1%[38.3 µM] | -1 | -1 | -0.3 | -1.0 | 1%
CCOc1ccc(NC(=O)N2CCC(c3nc4ccccc4o3)CC2)cc1 | -2.6% | 0.9% | 5 | -5 | 2.2 | 0.0 | 20%
CS(=O)(=O)N(CC(=O)N1CCCC1)c1ccc(F)cc1 | -1.2% | 2.3% | -8 | · | -0.3 | · | ·
COc1ccc(/C=C/C(=O)NCC(=O)N/N=C/c2cc(Br)ccc2OCc2ccccc2)cc1 | -9.6% | 5.7% | 0 | 2 | -0.1 | 1.1 | -6%
